GALR2 ag: GALR2 receptor agonists, primary screen, cell-based. Galanin receptor type 2 (Homo sapiens), O43603. GALR2-expressing cells, agonist activation read-out. activation, %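 (tested at 5 µM)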. hit rate 0.48% among 140,000. AID 803, 2007;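 active = above mean plus 3 SD of all compounds, about 5% in these data, not always enough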;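 also: 0% = vehicle buffer wells and 100% = reference agonist at full effect; tested in CHO reporter cells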
Target sequence (O43603 whole entry, looked up): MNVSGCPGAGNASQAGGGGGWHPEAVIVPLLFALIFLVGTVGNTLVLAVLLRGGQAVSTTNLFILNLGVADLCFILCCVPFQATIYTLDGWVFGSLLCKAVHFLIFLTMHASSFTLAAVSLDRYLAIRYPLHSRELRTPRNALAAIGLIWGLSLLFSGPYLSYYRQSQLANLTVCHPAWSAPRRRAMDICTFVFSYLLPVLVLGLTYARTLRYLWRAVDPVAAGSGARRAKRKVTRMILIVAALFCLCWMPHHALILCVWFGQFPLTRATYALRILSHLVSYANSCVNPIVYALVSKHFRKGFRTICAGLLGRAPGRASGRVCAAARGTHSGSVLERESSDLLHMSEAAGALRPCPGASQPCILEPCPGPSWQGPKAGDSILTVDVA
RGS16-Gao: modulators of RGS16 binding to Galphao, primary screen, biochemical, human proteins, multiplexed bead flow cytometry | bead-based flow cytometry RGS16-Galphao binding, fluorescence; actives lie on both sides | Regulator of G-protein signaling 16 (Homo sapiens) + Guanine nucleotide-binding protein … | binding response (% of control), % at 10 µM | hit rate 0.38% among 220,000;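 active = below 25% or above 175%, edge rows of some plates excepted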;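 also: Galphao activated by GDP with aluminum fluoride before binding; 100% = wells without compound and 0% = beads without RGS; some results beyond the cut were filed as inactive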
Target sequence (O15492 whole entry, looked up): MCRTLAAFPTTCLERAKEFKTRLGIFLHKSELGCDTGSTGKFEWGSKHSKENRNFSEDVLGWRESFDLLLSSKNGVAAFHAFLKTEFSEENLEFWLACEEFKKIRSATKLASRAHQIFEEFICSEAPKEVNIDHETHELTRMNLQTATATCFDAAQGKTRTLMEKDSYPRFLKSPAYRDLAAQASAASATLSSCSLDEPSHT
Target sequence (P09471 whole entry, looked up): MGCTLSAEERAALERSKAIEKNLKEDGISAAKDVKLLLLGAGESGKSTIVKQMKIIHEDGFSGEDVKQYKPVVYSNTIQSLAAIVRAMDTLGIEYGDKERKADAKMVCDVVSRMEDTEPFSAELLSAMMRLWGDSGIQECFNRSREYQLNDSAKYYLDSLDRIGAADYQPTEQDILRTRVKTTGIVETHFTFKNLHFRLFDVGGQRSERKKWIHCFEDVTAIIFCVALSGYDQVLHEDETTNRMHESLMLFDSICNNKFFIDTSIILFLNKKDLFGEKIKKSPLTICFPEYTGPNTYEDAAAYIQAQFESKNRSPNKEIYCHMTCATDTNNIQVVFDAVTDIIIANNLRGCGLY
PKD1 kinase inh: inhibitors of human PKD1 kinase, biochemical, fluorescence polarization; hit rate 0.056% among 200,000; Serine/threonine-protein kinase D1 (Homo sapiens), Q15139; inhibition, %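 (about 10 µM by stock and volumes)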; AID 797, 2007; PKD1 kinase fluorescence polarization assay;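 active = inhibition of 50% or more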;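 also: controls were vehicle for no effect and a reference inhibitor for full effect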
Insulin prom inh: inhibitors of insulin promoter-driven GFP, primary screen, imaging, TRM-6 cells (human fetal islet line), eGFP reporter, cell count | hit rate 0.9% among 130,000 | reporter expression induced with tamoxifen | inhibition, % at 2 µM;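 active = inhibition above the mean plus 3 SD, with well images judged a real hit on visual review, cut at about 60% in these data, passing the limit was not always enough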
HSV replic up: enhancers of HSV replication in host cells, fold increase, host cell viability; HSV replication augmentation in cells; AID 1956, 2009; maximum fold increase; hit rate 0.005% among 220,000;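 active = peak rise of 1.5-fold or more in the series; tested in PC3 cells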;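 also: first round at 10 µM; read as green reporter fluorescence; hits show the peak of a series up to 25 µM; 1 = signal of infected wells without compound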
Insulin prom inh cell count: further read-out of Insulin prom inh, marked with its call; normalized cell count, %; measured here: cell count, toxicity; reference of the scale not given here;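 cells exposed to compound for 48 h; stained nuclei by imaging scaled within each plate; lower means fewer cells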
HSV replic up primary fold: also measured in HSV replic up; calls as there; fold increase; compound at 10 µM; measured here: primary screen fold increase 10 uM; tested in PC3 cells;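 GFP signal in the first replicate; 1 = infected wells without compound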
Active calls of the source: *; i = inactive; nt = no result given.

SMILES	GALR2 ag	RGS16-Gao	PKD1 kinase inh	Insulin prom inh	Insulin prom inh cell count	HSV replic up	HSV replic up primary fold
COC(=O)CCCC1=CC2=C(c3ccccc3)C(=O)C(C)(OC(=O)C3CCCC3)C(=O)C2=CN1CCCCO (configuration not stated)	nt	98	nt	nt	nt	i	1
Cc1c(NC(=O)CN2C(=O)NC3(CCCC3)C2=O)c(=O)n(-c2ccccc2)n1C	nt	102	1	36	81	i	0.94
CCN(c1ccccc1)S(=O)(=O)c1cccc(C(=O)NCC(c2cccs2)N(C)C)c1 (configuration not stated)	nt	96	-4	40	94	i	1
CCC(C)NC(=O)C(NS(=O)(=O)c1ccc2c(c1)c(=O)n(C)c(=O)n2C)c1ccccc1 (configuration not stated)	-4.6	97	-8	nt	nt	i	0.93
O=C(O)CNS(=O)(=O)c1cccc2nsnc12	-2.0	109	-8	46	100	i	0.86
CCOc1ccc(N(CC(=O)Nc2ccccc2)S(C)(=O)=O)cc1	-2.3	-46*	-3	22	104	i	1.1
COc1ccc(/C=C/C(=O)OCC(=O)Nc2ccc(Cl)cc2F)cc1S(=O)(=O)N1CCOCC1	0.3	99	-8	-3	100	i	0.96
Cc1cc(C)n(C(=O)Cn2nc(C(F)F)cc2C)n1	-1.8	94	0	-101	89	i	0.97
CCCOc1ccc(N2C(=O)CC(SC(=NCC)Nc3cccc(F)c3)C2=O)cc1 (configuration not stated)	-1.3	101	3	-29	98	i	0.92
O=C(Oc1ccc(C(=S)N2CCOCC2)cc1Br)c1ccccc1F	-2.1	90	-6	8	85	i	1
COc1cccc(CN2CCN(c3nc4nonc4nc3NC3CC3)CC2)c1	nt	105	2	nt	nt	i	0.97
COCCSc1ccccc1C(=O)NCc1ccco1	-4.3	99	2	14	87	i	1.1
O=c1c(C/C=C/c2ccccc2)c(O)ccn1Cc1ccc(Cl)cc1Cl	nt	101	2	20	134	i	1.1
CC(=O)Nc1ccc(C(=O)OCc2ccccc2Cl)cc1	0.1	126	20	nt	nt	i	1.2
COc1ccc(-c2cn3c(C)c(C(=O)Nc4cccc(NC(C)=O)c4)sc3n2)cc1	0.1	95	-2	24	133	i	0.81
CCN(CC)C(=O)C(=O)c1cccn1-c1ccccc1C#N	0.4	105	-2	100*	30*	i	0.92
COc1ccc(C(C)NC(=O)c2ccc(Cl)cc2)cc1OC (configuration not stated)	-1.5	107	-4	-44	117	i	0.86
CCOC(=O)c1ccc(NC(=O)CCc2nc(-c3cccc(C)c3)no2)cc1	0.1	111	-2	-13	77	i	0.89
COCC(C)n1c(COc2ccccc2F)nnc1SCC(=O)c1c(N)n(C)c(=O)n(C)c1=O (configuration not stated)	nt	103	6	nt	nt	i	0.99
CCCCSc1nc(O)c(C2OC(=O)c3c2ccc(OC)c3OC)c(=O)n1C (configuration not stated)	-1.8	90	1	14	121	i	0.86
O=C(c1ccc(COc2ccc(F)cc2)o1)n1cccn1	-2.3	102	-5	nt	nt	i	1
O=C(N/N=C/C(Br)=C/c1ccccc1)c1cnccn1	nt	104	nt	nt	nt	i	0.87
COc1ccc(S(=O)(=O)N=Nc2c(O)[nH]c3ccccc23)cc1	nt	105	-2	-7	211	nt	nt
CN(C)/C=C1\N=C(c2cccnc2Oc2ccc(Cl)cc2)OC1=O	nt	98	nt	nt	nt	i	0.86
CC(C)(C)n1nc2c(c1NC(=O)Cc1cccc3ccccc13)CS(=O)C2 (configuration not stated)	0.4	98	6	nt	nt	i	0.94
CC(C)(CNc1ccc([N+](=O)[O-])cc1C#N)N1CCOCC1	nt	107	2	-11	101	i	0.98
Nn1c(SCC(=O)N2CCCCCC2)nnc1-c1ccncc1	-0.5	54	-5	37	90	i	0.94
O=C(Nc1ccccc1Br)C(=O)N1CCCC1	0.0	105	-3	44	111	i	0.86
Cc1ccc(N=Cc2c(O)n(-c3nccs3)c(=O)c3ccccc23)c(C)c1	-0.7	103	6	-59	94	nt	nt
COCc1cc(C)nc(OCC(=O)N/N=C/c2cc(C)n(-c3c(C)cccc3C)c2C)c1C#N	-0.7	49	-5	-8	115	i	0.89
Cc1nc2ccccn2c1-c1csc(Nc2cccc(O)c2)n1	nt	91	-4	nt	nt	i	0.66
COc1cc(C(F)(F)F)c(C(=O)N(C)Cc2cccc(Cl)c2)cn1	nt	101	nt	nt	nt	i	1
COc1cccc(NC(=S)N(CCN2CCCCC2)Cc2ccco2)c1	nt	101	-8	nt	nt	i	1
O=C1c2ccsc2SCCN1Cc1ccc(Cl)cc1	-0.4	104	-3	-27	89	i	1.2
O=C(N/N=C/c1ccc(O)cc1)c1cc(C23CC4CC(CC(C4)C2)C3)[nH]n1	nt	82	nt	nt	nt	i	0.95
COc1ccc(S(=O)(=O)N2CCc3ccccc3C2)cc1OC	-1.1	95	1	34	91	i	0.89
CCCc1cc(NCC2CCCO2)n2c(nc3ccccc32)c1C#N (configuration not stated)	2.6	79	-7	-21	137	i	0.98
N#Cc1ccsc1NC(=O)COc1ccc(-c2nnco2)cc1	-1.7	99	-11	65*	97*	i	0.99
Cc1c(C#N)sc2nc(-c3ccccc3)nc(N3CCCC3)c12	0.8	110	-6	67	75	i	0.87
COc1ccc(OC)c(NC(=O)NCCc2cccc(Cl)c2)c1	nt	95	-6	nt	nt	i	1
CCn1c(COc2cc(C)ccc2C(C)C)nnc1SCC(=O)Nc1nccs1	nt	98	2	nt	nt	i	0.94
COc1cc([N+](=O)[O-])cc(/C=N/NC(=O)CSc2ccccn2)c1O	nt	90	nt	nt	nt	i	0.85
CN(C)c1ccc(/C=C2/SC(=O)N(CCN=C3NS(=O)(=O)c4ccccc43)C2=O)cc1	13*	94	-7	nt	nt	i	1
OCCN1CCN(CC#CCC(c2ccccc2)c2ccccc2)CC1	nt	98	nt	nt	nt	i	0.99
Cc1c(C(=O)OCC(=O)N2CC(=O)Nc3ccccc32)oc2ccccc12	-1.5	101	2	-3	52	i	0.92

5 structures already listed, sorted by heavy-atom count, descending:
SMILES	GALR2 ag	RGS16-Gao	PKD1 kinase inh	Insulin prom inh	Insulin prom inh cell count	HSV replic up	HSV replic up primary fold
COc1cccc(NC(=S)N(CCN2CCCCC2)Cc2ccco2)c1	nt	101	-8	nt	nt	i	1
COc1cc(C(F)(F)F)c(C(=O)N(C)Cc2cccc(Cl)c2)cn1	nt	101	nt	nt	nt	i	1
Cc1c(C#N)sc2nc(-c3ccccc3)nc(N3CCCC3)c12	0.8	110	-6	67	75	i	0.87
CCN(CC)C(=O)C(=O)c1cccn1-c1ccccc1C#N	0.4	105	-2	100*	30*	i	0.92
O=C(Nc1ccccc1Br)C(=O)N1CCCC1	0.0	105	-3	44	111	i	0.86

Further structures follow.
SMILES	GALR2 ag	RGS16-Gao	PKD1 kinase inh	Insulin prom inh	Insulin prom inh cell count	HSV replic up	HSV replic up primary fold
COc1ccccc1NC(=O)c1ccc(S(=O)(=O)N2CCOCC2)cc1	-2.5	101	4	21	96	i	0.65
O=S(=O)(c1cccc2nsnc12)N1CCN(C/C=C/c2ccccc2)CC1	-0.7	105	-14	nt	nt	i	0.83
COCC1CCCN(Cc2cn(Cc3ccccc3)nc2-c2cc3ccccc3o2)C1 (configuration not stated)	nt	102	-10	nt	nt	i	0.78
COc1ccc(C)cc1NC(=O)C1CCCN(S(=O)(=O)c2cnc[nH]2)C1 (configuration not stated)	-2.3	90	-1	nt	nt	i	0.94
CCc1ccc(-c2nc(CN3CCC(C(=O)NCCN(CC)c4ccccc4)CC3)c(C)o2)cc1	-1.6	101	-4	nt	nt	i	0.76
C(=N\Nc1nc2ccccc2[nH]1)/c1cccc2cccnc12	nt	103	nt	nt	nt	i	0.73
O=C(O)c1cc(S(=O)(=O)NCc2ccco2)c(Cl)cc1Cl	-0.1	107	0	nt	nt	i	1.1
CCOC(=O)c1cnc2c(-c3ccccc3OC)c(C)nn2c1C	nt	100	1	-79	118	i	1.1
COc1ccc(S(=O)(=O)NCCSC(C)(C)C)cc1	-0.3	102	-1	34	102	i	0.84
O=C(COC(=O)C1CCN(S(=O)(=O)c2ccc3c(c2)OCCO3)CC1)Nc1cc(C(F)(F)F)ccc1Cl	-0.1	96	-7	nt	nt	i	1.2
C/C(=N\NC(=O)c1nn(C)cc1Br)c1cccc(NC(=O)C2CCCC2)c1	-1.3	99	-2	nt	nt	i	0.93
O=C(Nc1ccc(Br)cc1)c1ccccc1CC[N+](=O)[O-]	-1.4	100	-5	-4	102	i	0.88
CCc1ccc(NC(=O)Cn2cnc3c(=O)n(C)c(=O)n(C)c32)cc1	nt	104	4	nt	nt	i	0.98
CCOC(=O)N1CCN(C(=O)CCCn2c(=S)[nH]c3ccc(Br)cc3c2=O)CC1	-1.1	99	-2	-71	100	i	0.84
COc1cc(OC)cc(-c2nnc(SCC(=O)Nc3cc(C)on3)o2)c1	0.2	nt	2	-113	75	nt	nt

Structures above that bear a hit mark in RGS16-Gao:
| Structure | GALR2 ag | RGS16-Gao | PKD1 kinase inh | HSV replic up primary fold |
| --- | --- | --- | --- | --- |
| CCOc1ccc(N(CC(=O)Nc2ccccc2)S(C)(=O)=O)cc1 | -2.3 | -46* | -3 | 1.1 |

Continued.
SMILES	GALR2 ag	RGS16-Gao	PKD1 kinase inh	Insulin prom inh	Insulin prom inh cell count	HSV replic up	HSV replic up primary fold
CC1CCCCC12NC(=S)N(c1ccccc1)N2 (configuration not stated)	nt	98	nt	nt	nt	i	0.99
CCOc1ccc(CC(C(N)=O)C(N)=O)cc1CN(C)C	-2.5	107	-3	33	91	i	0.95
CN1CCN(c2ccccc2NC(=O)c2ccc(OCc3ccccc3)cc2)CC1	2.0	106	-2	-37	99	i	1
Cc1ccc(NC(=S)/N=C(\N)Nc2nc(C)c3ccccc3n2)cc1C	0.0	104	-6	nt	nt	i	0.99
CCN(CC)S(=O)(=O)c1ccc(OC)c(NC(=O)c2cc([N+](=O)[O-])ccc2Cl)c1	-1.1	111	3	0	56	i	0.63
O=C(CN1CCN(c2ccccc2F)CC1)Nc1nnc(C(F)(F)F)s1	nt	102	-3	21	111	i	0.92
COc1ccc(CCn2c(O)c(C=Nc3cccc(F)c3)c(=O)[nH]c2=O)cc1OC	nt	98	nt	nt	nt	i	1
Cc1cccc(NC(=O)C2(C)CC3c4ccccc4C2c2ccccc23)c1 (configuration not stated)	0.5	105	6	-17	91	i	0.88
CC(=O)c1ccc(-n2nnnc2SCC(=O)N2CCc3ccccc3C2)cc1	-1.1	99	-4	24	55	i	1
C=CCN1C(=O)N(c2ccc(Cl)cc2)C(=O)C1CC(=O)Nc1ccc(F)cc1 (configuration not stated)	nt	107	-1	nt	nt	i	0.77
CCOc1ccccc1-c1cc(C(=O)N/N=C/c2ccc(O)c(OC)c2)c2ccccc2n1	0.4	104	-2	-154	125	i	0.7
O=C(COC(=O)CCCCCN=C1NS(=O)(=O)c2ccccc21)Nc1ccc(Cl)c(Cl)c1	-0.9	45	9	-93	107	i	0.9
CCOC(=O)Cc1ccc2sc(-c3ccccc3)nc2c1	-0.5	154	-10	-9	61	i	1
O=C(c1cccnc1NCc1ccc(F)cc1)N1CCOCC1	-1.3	106	2	-11	126	i	0.89
CCC(=O)N/N=C/c1ccc(-c2ccc([N+](=O)[O-])cc2)o1	nt	109	0	29	103	i	1.1

Taken from above for reference:
SMILES	GALR2 ag	RGS16-Gao	PKD1 kinase inh	Insulin prom inh	Insulin prom inh cell count	HSV replic up	HSV replic up primary fold
Cc1cc(C)n(C(=O)Cn2nc(C(F)F)cc2C)n1	-1.8	94	0	-101	89	i	0.97
CCCOc1ccc(N2C(=O)CC(SC(=NCC)Nc3cccc(F)c3)C2=O)cc1 (configuration not stated)	-1.3	101	3	-29	98	i	0.92
O=C(Oc1ccc(C(=S)N2CCOCC2)cc1Br)c1ccccc1F	-2.1	90	-6	8	85	i	1

Additional entries follow.
SMILES	GALR2 ag	RGS16-Gao	PKD1 kinase inh	Insulin prom inh	Insulin prom inh cell count	HSV replic up	HSV replic up primary fold
O=C(COC(=O)C1(c2ccc(Cl)cc2)CCCC1)NC1CCS(=O)(=O)C1 (configuration not stated)	0.4	95	-1	8	73	i	0.9
Cc1nn(C(C)C(=O)NCc2cccs2)c(C)c1[N+](=O)[O-] (configuration not stated)	nt	103	-6	nt	nt	i	0.87
CC1(C)CC(=O)c2c(O)c(-c3ccccc3)c(=O)n(-c3ccccc3)c2C1	1.2	106	-7	-33	122	i	0.9
CCN(CC)c1ccc(C(=S)NCc2ccccc2)cc1	nt	101	-1	nt	nt	i	0.99
O=C(O)c1nn2c(c1Br)NC(c1ccccc1)CC2C(F)(F)F (configuration not stated)	-2.0	102	0	nt	nt	i	0.99

Screening results from PubChem.
